# Assay outcomes as filed in PubChem BioAssay.
# MgrA DNA FP – alters Staphylococcus aureus MgrA binding to DNA; AID 602314; inhibition, %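 (about 10 µg/mL by stock and volumes)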; 84,000 tested, 0.13% active; fluorescence polarization;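 active means above 50% in either of two replicates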;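 further: 0% = protein plus DNA without compound and 100% = DNA alone without protein; higher means less MgrA bound to DNA so lower polarization; one replicate is shown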
# S aureus helic – blocks Staphylococcus aureus DNA helicase; purified S. aureus helicase, fluorescence unwinding assay; about half of the hits fall short of the stated cut; inhibition, %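 (tested at about 80 µM)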; 120,000 tested, 0.05% active;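 active means both duplicates at 50% or more, or one of them with a favoured structure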;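 further: 0% = mean of negative control wells and 100% = mean of positive control wells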
# Numbers without * were called inactive; . = no result given.
compound | MgrA DNA FP | S aureus helic
O=C(OCN1C(=O)c2ccccc2C1=O)c1ccccc1O | . | 18.0
CS(=O)(=O)Nc1ccc(-c2n[nH]c(=S)n2-c2ccccc2)cc1 | -1.8 | -6.0
CCC(C(=O)Nc1ccc(N2CCOCC2)cc1)c1ccccc1 (stereo not drawn) | . | -24.0
CCOc1ccc(OCC(=O)OC(C)C(=O)Nc2ncc(Cl)cc2Cl)cc1 (stereo not drawn) | . | 5.0
CCCC(C)NC1=NCCCCC1 (stereo not drawn) | . | -5.0
O=C(Nc1ccccc1)Nn1cnnc1 | . | 1.0
O=C1c2ccccc2-c2nc3ncnn3c(-c3ccccc3)c21 | . | 5.0
CCOC(=O)Cn1nc(-c2ccc(F)cc2)oc1=O | . | 11.0
COc1ccc(N2CCN(CC(=O)NC(=O)NC3CCCC3)CC2)cc1 | . | -7.0
COc1ccc(C(=O)NC(c2ccc(C)cc2)c2cc(Cl)c3cccnc3c2O)cc1 (stereo not drawn) | 5.5 | -5.0
CC(C)(C)OC(=O)N/N=C\c1cccnc1 | . | -22.0
CC(=O)Oc1ccc2c(=O)c(-c3ccccc3)coc2c1 | . | 3.0
O=C(OCc1nc2ccccc2s1)c1ccc2c(c1)OCCO2 | . | -1.0
CCOc1ccccc1C(=O)Nc1ccccc1 | -0.9 | 2.0
CCc1ccc(N=C2NC(=O)/C(=C/c3cc(C)n(CC)c3C)S2)cc1 | 1.6 | 5.0
CC(=O)Nc1ccc(NC(=O)/C=N/O)cc1 | 9.7 | 11.0
COc1ccc(C(=O)CSc2ncccn2)c(OC)c1 | . | -3.0
CC(CC(=O)O)CC(=O)Nc1ccccc1C(=O)O (stereo not drawn) | 0.4 | 6.0
COc1cccc(/C=N/N2C(=O)CSC2=S)c1O | 22.2 | 11.0
c1nc2c3c4c(sc3ncn2n1)CCCC4 | 2.2 | 10.0
N#CCCn1nc(-c2ccccc2)cc1Nc1ccccc1N | . | -9.0
Cc1cc(C)c2c(n1)nn1c(C)c(CCC(=O)NCC3CCCO3)c(C)nc21 (stereo not drawn) | . | 7.0
O=C(CSc1n[nH]c(=O)n1-c1ccccc1)N1CCC(C(F)(F)F)CC1 | -1.6 | .
CC(=O)Oc1ccn(C)c(=O)c1C#N | -3.8 | 10.0
CCOc1ccc(-c2c(C)sc(=Nc3ccccc3)n2Cc2ccco2)cc1 | . | -5.0
Cc1ccccc1Cn1c(=O)n(Cc2ccco2)c(=O)c2ccc(C(=O)NCCc3ccccc3)cc21 | 0.0 | 17.0
O=C(NCCCN1CCCC1=O)c1ccc2nc(N3CCOCC3)sc2c1 | . | 10.0
COC(=O)c1c(NC(=S)Nn2cnnc2)sc2c1CCC(C)C2 (stereo not drawn) | 14.4 | 3.0
C=CCn1c(SCC(=O)NC(=O)NCc2ccco2)nc2ccc(Cl)cc2c1=O | . | -16.0
CCN1C(=O)/C(=C\C=C\c2ccccc2)SC1=S | . | -4.0
CCc1ccc(N2CCN(S(=O)(=O)CC34CCC(CC3=O)C4(C)C)CC2)cc1 (stereo not drawn) | -0.2 | 10.0
COc1ccc(-c2nc3ccccc3n2C(C)C)cc1OC | . | 14.0
N#CCCN(Cc1cccs1)S(=O)(=O)c1cccc2nsnc12 | -0.4 | .
CC(C)(CO)NC(=O)c1ccc(Cl)cc1Cl | . | 0.0
COc1cc(/C=C2/SC(=Nc3cc(C)cc(C)c3)NC2=O)cc(Br)c1OC | 0.2 | 10.0
O=C(Nc1cccc2[nH]ncc12)c1ccco1 | -2.0 | .
CC1CCN(c2ccc(C(=O)O)cc2)CC1 | -1.8 | 4.0
Cc1cc(C(=O)NNCc2ccccc2)no1 | 0.4 | .
Cc1cc(C)n(CCC(=O)NCCN2CCN(c3cc(Cl)ccc3C)CC2)n1 | . | 7.0
CCn1c(C)cc(-c2csc(N)n2)c1C | 10.3 | -5.0

# Sorted by length of the SMILES (lowest first): some entries from above.
compound | MgrA DNA FP | S aureus helic
CCn1c(C)cc(-c2csc(N)n2)c1C | 10.3 | -5.0
CC1CCN(c2ccc(C(=O)O)cc2)CC1 | -1.8 | 4.0
CCN1C(=O)/C(=C\C=C\c2ccccc2)SC1=S | . | -4.0
N#CCCN(Cc1cccs1)S(=O)(=O)c1cccc2nsnc12 | -0.4 | .
COC(=O)c1c(NC(=S)Nn2cnnc2)sc2c1CCC(C)C2 (stereo not drawn) | 14.4 | 3.0
C=CCn1c(SCC(=O)NC(=O)NCc2ccco2)nc2ccc(Cl)cc2c1=O | . | -16.0
Cc1cc(C)c2c(n1)nn1c(C)c(CCC(=O)NCC3CCCO3)c(C)nc21 (stereo not drawn) | . | 7.0

# Remaining list, next part:
compound | MgrA DNA FP | S aureus helic
O=C1CCCC(=O)C1CC1C(=O)CCCC1=O | 0.6 | -3.0
c1ccc2c(c1)N(CN1CCCC1)CC21OCCO1 | . | 27.0
Brc1ccccc1-c1ccc(/C=N/N2CCOCC2)o1 | . | -16.0
CN1N=C2c3ccccc3CCCC2C1c1cccs1 (stereo not drawn) | -0.6 | .
CC(C)(C)c1ccc(-c2noc(CS(=O)(=O)c3ccc(Cl)cc3)n2)cc1 | -1.0 | .
COC(=O)CN(C#N)c1nc(NCc2ccccc2)nc(OC)n1 | 0.2 | .
O=C(CN(CCO)CCO)N(C1CCCCC1)C1CCCCC1 | -0.3 | -2.0
O=C(OCCN1CCOCC1)c1sc2ccccc2c1Cl | -3.5 | 3.0
CO[C@@]1(NC(=O)C2SC(=C(C(N)=O)C(=O)O)S2)C(=O)N2C(C(=O)O)=C(CSc3nnnn3C)CS[C@@H]21 (stereo partly drawn) | -3.5 | .
CCN(Cc1ccncc1)C(=O)c1cc2c(C)nn(-c3ccc(Cl)cc3)c2s1 | -1.1 | -5.0
CCn1cc(C(=O)N(Cc2nc3ccccc3c(=O)[nH]2)C(C)C)c(=O)c2ccc(C)nc21 | . | -14.0
Cc1ccc2oc3oc(=O)cc(C)c3c2c1 | . | -1.0
COC(=O)c1cc(OC)c(OC)cc1NCC(=O)N1CCOCC1 | . | -2.0
CC(=O)Nc1cccc([N+](=O)[O-])c1[N+](=O)[O-] | 3.6 | .
O=C(O)C(Cc1ccccc1)Nc1ncnc2sc3c(c12)CCC3 (stereo not drawn) | . | 2.0
O=C(O)c1ccc(N2CCOCC2)cc1 | -0.7 | 9.0
COc1ccc(C(=O)CSc2nc3cc(C)ccc3cc2C#N)cc1 | 3.2 | -3.0
Cc1nc(-c2ccc(S(=O)(=O)NCCCN)s2)cs1 | . | -17.0
O=C(O)CSc1nc2c(c(C(F)(F)F)n1)CCc1ccccc1-2 | 2.4 | -4.0
Cn1cc(C(=O)N2CCN(c3cccc(Cl)c3)CC2)c(=O)c2cc(S(=O)(=O)N3CCOCC3)ccc21 | . | -11.0
COc1ccc(OCC(=O)OC2CCN(C)CC2)cc1 | 4.7 | 4.0
Cc1cc(C)c(C#N)c(N)c1C#N | . | 8.0
O=C(COC(=O)/C=C/c1ccc(F)cc1)Nc1ncccn1 | . | 6.0
CC(Nc1ccccc1)C(=O)Nc1cc(C(F)(F)F)ccc1Cl (stereo not drawn) | 0.4 | -16.0
CC(Oc1cc(O)c2c(=O)cc(-c3ccccc3)oc2c1)C(=O)O (stereo not drawn) | -1.6 | .
Cc1ccc(NC(C)c2cc(Cl)ccc2O)cc1 (stereo not drawn) | -0.3 | 9.0
OC(CN1CCN(C2c3ccccc3-c3ccccc32)CC1)c1ccccc1 (stereo not drawn) | -1.5 | .
N#CC(C#N)=Cc1ccc(-c2ccc(SC(F)F)cc2)o1 | . | -46.0
NC(=O)c1nsc(C(=O)N(CCc2ccccc2)C(C(=O)NC2CCCC2)c2ccco2)c1N (stereo not drawn) | -0.8 | 0.0
O=S(=O)(c1ccccc1)N1CCCC(C(F)(F)F)C1 (stereo not drawn) | 4.4 | 6.0
CN(Cc1ccccc1)C(=O)/C=C/C(=O)O | . | -8.0
Cc1cc(N=Cc2cc(Cl)cc(Cl)c2O)no1 | 6.2 | .
CCN1C(=O)CC(N2CCC(CCc3ccc(OC)cc3)CC2)C1=O (stereo not drawn) | -0.2 | 19.0
COc1ccc(/C(C)=N/NC2=NCCCN2)cc1 | -1.6 | .
Cc1nc2ccc(NC(=O)c3cccc(C(F)(F)F)c3)cc2o1 | -1.6 | .
CC(C)NC(=O)CN1C(=O)c2cccnc2Oc2ccccc21 | -1.4 | 11.0
O=C(CCc1ccc(S(=O)(=O)N2CCOCC2)cc1)OCC(=O)c1ccc2c(c1)OCCO2 | . | 12.0
Cc1cc(C)cc(NC(=O)c2ccccc2C(=O)O)c1 | -1.2 | 13.0
COc1ccc(NCN2C(=O)CCC2=O)cc1 | 2.5 | -2.0
Cc1nc(C)c(C#N)c(-c2c(Cl)cccc2Cl)c1C#N | -1.5 | .
CCOc1cc2c(cc1CNCC(c1cccs1)N1CCN(C)CC1)OC(C)C2 (stereo not drawn) | . | 0.0
COc1cc(OC)cc(C(=O)c2ccc(C(=O)NC3(c4ccccc4)CC3)cc2)c1 | -3.4 | 21.0
CC(C)CNC1=NCCCS1 | 1.5 | -21.0
Cc1ccc(N2C(=O)CSC23C(=O)N(CN2CCN(c4ccccc4F)CC2)c2ccccc23)cc1 (stereo not drawn) | . | 1.0
Cc1csc2c(=O)sc(NC(=O)c3ccco3)nc12 | -1.7 | .
COc1ccc(/C=C/C(=O)NCCN2CCOCC2)cc1S(=O)(=O)N1CCCCC1 | 1.8 | -10.0
Cc1nn(CCC#N)c2c1P(=S)(N1c3ccccc3CC1C)/C(=C1\N(C)c3ccccc3C1(C)C)C=N2 (stereo not drawn) | . | -29.0
CC1(C)CC(=O)C=C(NCc2ccco2)C1 | . | 12.0
COc1ccccc1N1CCN(S(=O)(=O)c2c(C)sc3ncn(CC(=O)NCCN4CCOCC4)c(=O)c23)CC1 | . | -19.0
COc1ccc(C2=NN(CN3C(=O)C(=O)c4ccccc43)C(c3ccc(Br)cc3)C2)cc1 (stereo not drawn) | 0.1 | .
CC1(CC(=O)N/N=C/c2ccc(-c3cccc(C(F)(F)F)c3)o2)OCCO1 | -1.1 | 8.0
CN(Cc1ccco1)C1CCCCC1NS(=O)(=O)c1ccc(Cl)cc1 (stereo not drawn) | . | 15.0
COc1ccc(/C=C(/NC(=O)c2ccccc2)C(=O)N2CCCCC2)cc1 | . | -23.0
COc1ccc(Cc2noc(COc3ccc(Cl)cc3)n2)cc1 | . | 16.0
COc1ccccc1S(=O)(=O)Cc1ccc(C(=O)NC2CCCCC2)o1 | . | 11.0
S=C(NC1Cc2ccccc2C1)N1CCCC1 | . | 9.0
COc1cc(NC(=O)C(C)OC(=O)Cc2ccccc2)cc(OC)c1 (stereo not drawn) | . | 3.0
Cc1ccc(C(C)C)c(OCc2ccc(C(=O)Nc3ccccc3C(F)(F)F)o2)c1 | -0.4 | 2.0
Cc1cc(=O)oc2cc(NS(=O)(=O)c3ccccc3)ccc12 | -0.8 | .
COC1(OC)CCCc2c1no[n+]2[O-] | 0.4 | 4.0

# (more compounds)
compound | MgrA DNA FP | S aureus helic
CC1CN(C(C(=O)c2c[nH]c3ccccc23)c2ccccc2)CC(C)O1 (stereo not drawn) | . | -16.0
NC(=O)c1c(/N=C/c2cc(Br)ccc2O)sc2c1CCC2 | 1.8 | -18.0
COc1cccc(N2C(=O)CC(Sc3ccccc3N)C2=O)c1 (stereo not drawn) | 0.2 | .
COc1ccc2c(c1)OC1=C(C(=O)CCC1)C2C1=C(O)CCCC1=O (stereo not drawn) | . | 5.0
O=C(CCOc1ccccc1)Nc1nc2cc3c(cc2s1)OCO3 | . | -7.0
CCOc1ccc(N2C(=O)CC(N(CCc3ccccc3)C(C)=O)C2=O)cc1 (stereo not drawn) | -3.4 | 18.0
CCN(CC)S(=O)(=O)c1ccc(C(=O)N(Cc2ccccc2)C(C)C)cc1 | -2.1 | 15.0
Cc1csc(=Nc2ccccc2)n1-c1ccccc1 | -1.8 | -1.0
O=C(CCN1N=C(c2ccccc2)CCC1=O)N1CCC2(CC1)OCCO2 | -1.0 | 3.0
O=C(O)CCS(=O)(=O)/C=C/c1ccccc1 | -0.3 | .
CCn1cnc2sc(C)c(C)c2c1=O | 3.1 | 9.0
Cn1c(=O)c2c(nc(SCc3nc(N)nc(N4CCCCC4)n3)n2C)n(C)c1=O | . | 9.0
CCOC(=O)C1=C(O)CN(C)C1=O | -1.9 | 1.0
COC(=O)C1CC(O)CN1S(=O)(=O)c1ccc2ccccc2c1 (stereo not drawn) | . | 7.0
CCc1nc2ccccc2nc1N1CCN(C(=O)c2cccs2)CC1 | -1.1 | .
N#Cc1c(-c2ccc(Cl)cc2)c(C#N)c2sc3ccccc3n2c1=O | . | 2.0
Cn1c2ccccc2c2ccccc21 | . | 1.0
CSC1=NCCN1C(=O)c1c(-c2c(F)cccc2Cl)noc1C | 0.3 | .
CCOc1ccc(-c2nc3ccc(Br)cc3c(C(=O)O)c2C)cc1 | -1.5 | 5.0
CC(C)OC(=O)CCc1nc2ccccc2[nH]c1=O | -2.6 | 13.0
CN(c1ccc(-c2csc(NC(=O)CCCc3nc4ccccc4c(=O)[nH]3)n2)cc1)S(C)(=O)=O | . | 9.0
NC(=O)c1ccccc1-n1ccnc1 | -0.5 | .
Cc1c(C(=O)N(Cc2ccccc2)Cc2cccnc2)cnn1-c1ccc(Cl)cc1 | -1.1 | .
CCNC(=O)c1c(-c2c(Cl)cccc2Cl)noc1C | . | 10.0
CCCNC(=O)CSc1nnc(-c2cccs2)o1 | . | 11.0
CN1/C(=C\C=C(C#N)C#N)C(C)(C)c2ccccc21 | . | -285.0
CCOc1ccc(C2CC(=O)NC(SCC(=O)Nc3ccc(Br)cc3)=C2C#N)cc1 (stereo not drawn) | 1.1 | .
Cc1cccc(Cn2c(=O)n(Cc3ccco3)c(=O)c3sc4ccccc4c32)c1 | . | 12.0

# These rows are one share of the data; rates above refer to the full screens.
